# CapD inh: CapD enzyme inhibition; 140,000 tested, 0.23% active; AID 492967; z-score (no concentration beside the values); purified CapD enzyme, fluorescence intensity read-out; stronger effect = lower value; some hits fall short of the stated cut;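 active = z-score under -4 in either of two replicates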;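 note: stock transfer was 100 nL into about 40 µL; score is relative to mean and spread of the plate; one replicate is shown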
# AID504770: growth inhibitors of E. coli YBA685 in a screen for V. cholerae RctB (chromosome II replication) inhibitors. E. coli YBA685 rctB-dependent plasmid, OD600 growth, 3 h; stronger effect = lower value. z-score (no concentration beside the values). 130,000 tested, 0.27% active. AID 504770;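 active = z-score under -2 on both plates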;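 note: wells of about 30 µL received 100 nL stock; score is relative to mean and SD of the test wells; the first replicate is given; strong numbers were not always called active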
# * = called active by the depositor; / = not tested or not shown; & = joins results of further samples.
SMILES | AID504770 | CapD inh
CCCCCCCOc1ccc(C(=O)Oc2ccc3ccccc3c2)cc1 | / | -0.54
Cc1noc(-c2cccs2)c1C(=O)NNC(=O)OCc1nc(-c2ccc(Cl)cc2)cs1 | / | 7.3
O=C(O)CCC1CCC(=O)N1 (centres undefined) | 0.6 | 2.7
COc1cc(C(c2nnnn2Cc2ccco2)N2CCN(C3CCCC3)CC2)cc(OC)c1OC (centres undefined) | -0.35 | /
COc1c(N)cc(Oc2cccc(C(F)(F)F)c2)c2nc(C)cc(C)c12 | -0.3 | 27
CCOC(=O)CCc1c(C)nc(SCc2ccc(C(=O)O)cc2)c(C#N)c1C | -0.6 | -0.21
Cc1cccc(N2C(=O)C3CCC(C)(C2=O)C3(C)C)c1 (centres undefined) | / | -0.18
COc1cc(NC(=O)c2sc3ncn(CC(=O)Nc4ccc(C)c(Cl)c4)c(=O)c3c2C)cc(OC)c1OC | / | 0.17
Clc1ccc(N=Cc2c[nH]c3ccccc23)cc1Cl | -1.2 | -0.29
CC(=O)Nc1ccc(OC(=O)CC2SC(=O)NC2=O)cc1 (centres undefined) | / | -0.39
O=C(CSc1cccc[n+]1[O-])Nc1ccccc1OC(F)F | -1.1 | /
O=C1CC(C(=O)N(Cc2ccco2)Cc2cccs2)CN1Cc1ccccc1 (centres undefined) | -0.05 | /
O=C(/C=C/c1cccs1)NCC1CCN(C(=O)/C=C/c2cccs2)CC1 | -0.45 | -1
CCOC(=O)C1CCN(C(=O)COC(=O)c2ccccc2OCC)CC1 | -0.05 | /
CCC1CC(C)(C)CCN1C(=O)c1cc(=O)[nH]c(=O)[nH]1 (centres undefined) | 0.5 | 0.72
CC(=O)NC1=NC(=O)/C(=C/c2ccccc2)S1 | -0.75 | -1.2
COc1ccc(CC(=O)Nc2nccs2)cc1S(=O)(=O)N1CCOCC1 | -0.75 | /
Cc1ccc(NNC(=O)C(O)(c2ccc(Cl)cc2)c2ccc(Cl)cc2)c(Br)c1 | / | -0.09
FC(F)(F)c1cc(Br)c2nc(-c3ccccc3)c(-c3ccccc3)nc2c1 | / | -0.36
N#COc1ccc(Oc2ccc(OC#N)cc2)cc1 | -0.45 | -4.9*
CON(C)c1nc(OCCNC(=O)COc2ccc(Cl)cc2Cl)nc(N(C)C)n1 | / | 0.12
COc1ccc(-c2cc(CCCC(=O)NCCc3cccs3)no2)cc1 | -0.3 | -0.97
O=C(NCCCN1CCC(Cc2ccccc2)CC1)c1nnc(Cc2ccc3c(c2)OCO3)o1 | -0.2 | -0.22
Brc1ccc2ncnc(N3CCCC3)c2c1 | -0.95 | -0.3
O=C(C1CC1)N1CCc2cc(Br)cc(S(=O)(=O)N3CCCCC3)c21 | 0.05 | -0.5
O=[N+]([O-])c1ccc(C2N(c3ccc(Cl)cc3)CCN2c2ccc(Cl)cc2)cc1 | / | -0.15
N=C1C(c2nc3ccccc3s2)=C(O)CN1C1CCCCC1 | 1.8 | 5.3
O=C(CN1CCC(N2CCCCC2)CC1)Nc1ccc2c(c1)OCCO2 | -0.2 | /
Cn1c(CC(=O)Nc2ccccc2)nnc1SCCOc1ccccc1 | 0.35 | 0.31
O=C(Nc1ccccc1)N(Cc1nc(-c2ccccc2)no1)C1CCCCC1 | -0.25 | -0.33
Cc1onc(-c2ccccc2Cl)c1C(=O)Nc1sc2c(c1C(N)=O)CCC(C(C)(C)C)C2 (centres undefined) | / | 2.1
CCOC(=O)C1CCN(C(=O)c2cc(C(C)(C)C)nn2Cc2ccccc2)CC1 | -0.2 | 0.54
CSc1cccc(NC(=S)NCCCO)c1 | 2.5 | -0.55
Cc1cc(C(=O)COC(=O)c2ccc(CN3CCCC3=O)cc2)c(C)n1C | -0.1 | /
COc1ccc(-n2cc3ccsc3c2)cc1 | -2 | 0.2
O=c1[nH]c(O)c(/C=C2\C=Nc3ccccc32)[nH]1 | / | -1.2
CC(C)(C)NC1=C(n2nnc3ccccc32)C(=O)c2ccccc2C1=O | -0.45 | -0.77
CCCCN(C)Cn1ncn(C)c1=S | 0.9 | /
Cc1ccc2cccc(NC(=S)NC(=O)c3ccn(C)n3)c2n1 | 0 | /
CC(C)(C(=O)c1ccccc1)/[N+]([O-])=C/c1ccc(F)cc1 | 0.1 | /
O=C(NCc1nc(-c2ccc(C(F)(F)F)cc2)no1)C1CCCCC1 | 1.4 | 0.46
Cc1cc2c(cc1S(=O)(=O)N1CCCc3ccccc31)OCCN2C | -0.6 | -0.05
COc1ccc(Cn2c(C)csc2=Nc2cccnc2)cc1OC | 0.65 | /
O=C(CSc1ncccc1C(=O)O)NC1CCCc2ccccc21 (centres undefined) | 0.3 | /
O=C(C1CC1)N(c1ccccc1)C1C=CS(=O)(=O)C1 (centres undefined) | 0.05 | /
O=C(COc1ccccc1)N1CCN(c2cccc(Cl)c2)CC1 | 2.1 | -0.34
Cc1cc2c(cc1Br)NC(=O)C21C(C#N)=C(N)Oc2n[nH]c(C)c21 (centres undefined) | -0.2 | 0.15
CCOC(=O)c1c(C=O)oc2c(C)cc(OC(=O)c3ccc(C(=O)c4ccccc4)cc3)c(Br)c12 | / | 0.32
O=c1[nH]cccc1-c1nc2cc(Cl)c(Cl)cc2n1Cc1ccccc1F | / | 70
COC1=C[C@H]2C3=C([C@H]2C1=O)[C@@H](NC(C)=O)CCc1cc(OC)c(OC)c(OC)c13 | / | 42
CCOC(=O)C1CCN(C(=S)c2ccccc2)CC1 | -0.65 | -0.42
O=c1cc(-c2ccccc2)[nH]n1-c1nc2ccccc2s1 | 2.4 | -2.6
N#Cc1cccc(CSc2nnc(-c3ccccc3F)n2C2CC2)c1 | 0.7 | /
C=CCNC1CC(=O)N(c2ccccc2)C1=O (centres undefined) | 0.4 | 0.51
Cc1nc2cccc[n+]2c(-c2ccccc2)c1C | -0.75 | 0.09
COc1ccc(C(C(=O)OCCN(C)C)c2ccccc2)cc1 (centres undefined) | -0.45 | 0.73
COc1ccc(N)cc1 | -0.95 | /
COC(=O)CSc1nnc(-c2ccccc2)n1Cc1ccc2c(c1)OCO2 | 0.15 | /
O=C(CCc1[nH]c2ccccc2c1Sc1ccccc1)N(CCO)CCO | -0.5 | 0.17
COc1ccc(NC(=O)Cc2c(Sc3ccccc3)c3ccccc3n2C)cc1 | / | -0.16

# Going on with the list.
SMILES | AID504770 | CapD inh
COc1ccc(C(=O)Nc2ccc(-c3nc4cc(C)cc(C)c4o3)cc2)cc1OC | 2.4 | -0.24
O=C1C=C(Nc2ccccc2)CC(c2ccc(Cl)cc2)C1 (centres undefined) | -0.15 | -0.13
O=S1(=O)CCC(N2CCSC2=Nc2ccc(Cl)cc2)C1 (centres undefined) | -0.05 | /
COc1ccc(CNC(=O)C2C3CCC(O3)C2C(=O)O)cc1 (centres undefined) | 1.3 | 0.14
CN(C)/C=N/c1ncc(C(F)(F)F)cc1Cl | / | 3.5
Oc1c(CN2CCOCC2)cc(CN2CCOCC2)cc1CN1CCOCC1 | 2 | /
CCOc1ccc(NC(=O)CSc2ncnc3c2oc2ccccc23)cc1 | -0.8 | 0.12
CN(CCOc1ccccc1)C(=O)NCc1ccccc1 | 1.4 | /
O=[N+]([O-])c1cc(C(F)(F)F)ccc1N1CCCC1 | / | -0.21
Cc1cccc(C2=NC(C(F)(F)F)(C(F)(F)F)c3c(n(C)c(=O)n(C)c3=O)N2)c1 | 0.45 | 0.38
C[N+]1(CCCCC[N+]2(C)CCCC2)CCCC1 | 0.05 | -0.31&-0.075
CC(=O)OCC1OC(Oc2ccc(C(=O)Cc3ccccc3)c(O)c2)C(OC(C)=O)C(OC(C)=O)C1OC(C)=O (centres undefined) | / | 0.31
CC1CC(C)CN(C(=O)C2c3ccccc3C(=O)N(C)C2c2cn(C)c3ccccc23)C1 (centres undefined) | 0.45 | -0.41
CCOC(=O)c1sc(NC(=O)c2sc3ccccc3c2Cl)nc1-c1ccccc1 | / | 0.43
CCC(=O)N1c2ccccc2NC2=C(C(=O)CC(c3ccccc3)C2)C1c1ccc(C(=O)OC)cc1 (centres undefined) | / | 0.39
Cc1ccc(-c2nc3n(n2)C2(CCCCC2)[C@@H]2CCCC[C@@H]2N3C(=O)c2cccs2)cc1 | 0.55 | -0.09
O=C(c1ccc(Br)cc1)c1n[nH]c(C(=O)c2ccccc2)c1O | -0.35 | 0.48
O=C(Nc1cccc(-c2nc3ccccc3o2)c1)c1ccc(S(=O)(=O)N2CCOCC2)cc1 | / | 0.96
CN=C(N)NCCCC(N)C(=O)O (centres undefined) | / | -0.55
CCC(=O)N1c2ccccc2NC2=C(C(=O)CC(c3cccc([N+](=O)[O-])c3)C2)C1c1ccc(OC)cc1 (centres undefined) | / | -0.97
COC(=O)c1c(C)n(Cc2ccccc2)c2ccc(O)cc12 | -0.6 | 1.1
Cc1ccc(-n2ccc(=O)c(C(=O)Nc3ccc(S(N)(=O)=O)cc3)n2)cc1 | 0.15 | -1.4
CCN(CC(=O)Nc1ccc(S(=O)(=O)N(C)C)cc1)CC(=O)Nc1ccccc1C(F)(F)F | -0.5 | /
CN1c2ccccc2N(C)C1c1cccn1C | 1.1 | /
O=C(NNC(=O)c1cccc(O)c1)OCCc1ccccc1Br | / | -0.42
OC(Cc1cccnc1)(c1ccccc1)c1ccc(Cl)cc1 (centres undefined) | 2 | -0.93
N=c1n(Cc2ccccc2)c2ccccc2n1CC(O)c1ccc(Br)cc1 (centres undefined) | 0.8 | -0.34
COc1ccc2c(C)nc(/N=C(N)/N=C(\C)c3ccccc3C(=O)O)nc2c1 | -0.35 | -1.1
CCOC(=O)CSCc1nc2c(c(=O)[nH]1)C1(CCCC1)Cc1ccccc1-2 | / | 2.3
O=C(NO)c1ccc(Br)s1 | -1.9 | /
O=C(c1ccc2c(c1)C1C=CCC1C(c1ccc([N+](=O)[O-])cc1)N2)N1CCOCC1 (centres undefined) | / | -0.46
C=CCSc1nnc(-c2cc(C(C)(C)C)nn2Cc2ccc(F)cc2)n1C | 1.8 | -0.15
CN(C)c1ccc(CN2CCCCCC2)cc1 | 1.9 | 0.23
CCc1ccc(NC(=O)/C=C/C(=O)O)cc1 | -0.35 | -0.065
CCCOc1ccc(C(C)(N)C(=O)O)cc1 (centres undefined) | 0.15 | 1.1
CCC(=O)Nc1sc(Cc2ccccc2)c(C)c1C(=O)OC | 2.5 | 6.6
COC(=O)CSc1nc2ccccc2s1 | -0.25 | /
CC(C)(C)c1ccc(C(=O)NCC(=O)O)cc1 | -0.6 | -0.3
COc1ccc(C2C(C#N)=C(N)OC3=C2C(=O)CC(C)(C)C3)cc1COc1ccc([N+](=O)[O-])c(C)c1 (centres undefined) | / | 0.12
CC(C)C(C)NC(=O)CSc1nc(N)cc(N)n1 (centres undefined) | 0.6 | /

# Gathered by group, those above containing two or more sulfur atoms.
SMILES | AID504770 | CapD inh
Cc1noc(-c2cccs2)c1C(=O)NNC(=O)OCc1nc(-c2ccc(Cl)cc2)cs1 | / | 7.3
O=C(/C=C/c1cccs1)NCC1CCN(C(=O)/C=C/c2cccs2)CC1 | -0.45 | -1
COc1ccc(CC(=O)Nc2nccs2)cc1S(=O)(=O)N1CCOCC1 | -0.75 | /
CSc1cccc(NC(=S)NCCCO)c1 | 2.5 | -0.55
O=S1(=O)CCC(N2CCSC2=Nc2ccc(Cl)cc2)C1 (centres undefined) | -0.05 | /
CCOC(=O)c1sc(NC(=O)c2sc3ccccc3c2Cl)nc1-c1ccccc1 | / | 0.43
COC(=O)CSc1nc2ccccc2s1 | -0.25 | /

# Back to the main list; the 2 compounds before the break are reprinted first.
SMILES | AID504770 | CapD inh
COc1ccc(C2C(C#N)=C(N)OC3=C2C(=O)CC(C)(C)C3)cc1COc1ccc([N+](=O)[O-])c(C)c1 (centres undefined) | / | 0.12
CC(C)C(C)NC(=O)CSc1nc(N)cc(N)n1 (centres undefined) | 0.6 | /
O=C(CN1CCOc2ccccc21)NCc1ccccc1 | -0.85 | -0.54
COC(=O)Nc1ccc2ncn(C)c(=O)c2c1 | -0.35 | 6.3
Cc1c(C)c(C)c(CSCc2n[nH]c(=S)n2-c2ccc(F)cc2)c(C)c1C | -0.45 | 0.33
CCOC(=O)/C(C#N)=C/c1c(C)nn(Cc2ccccc2)c1C | -0.15 | /
Cc1ccc(NC(=O)c2ccc(C(F)(F)F)cc2)c(OC(=O)c2ccc(C(F)(F)F)cc2)c1 | / | -0.78
Cc1ccc(OCc2nc(SCc3c(C)noc3C)n[nH]2)cc1 | -1.1 | /
Cc1ccc(CNc2ccc3c(c2)ncn3C(C)C)cc1 | -1.1 | 75
Cc1ccc(NC(=O)CC2CCC2)cc1C | 0.2 | 0.88
COc1cccc(CN(CCCN2CCOCC2)C(=O)c2cc3sccc3n2Cc2ccccc2)c1 | -0.05 | /
Cc1cc(C(=O)COC(=O)c2ccc(Cl)s2)c(C)n1-c1ncn[nH]1 | 0.2 | /
CC(C)CCNC(=O)C1CCCN(S(=O)(=O)N2CCC3(CC2)OCCO3)C1 (centres undefined) | 0.2 | 0.16
O=C(O)c1ccc2c(c1)CCO2 | / | -0.72
O=C(c1cccc2c1NC(c1ccc([N+](=O)[O-])cc1)C1CC=CC21)N1CCOCC1 (centres undefined) | / | -0.49
NNc1nc2cccnc2n(CCNc2ncc(C(F)(F)F)cc2Cl)c1=O | / | 0.55
CN(C(=O)COC(=O)c1cccnc1N1CCCC1)c1c(N)n(Cc2ccccc2)c(=O)[nH]c1=O | 1 | /
CN(C(=O)COC(=O)c1cccc2ccccc12)C1CCS(=O)(=O)C1 (centres undefined) | -0.4 | /
COc1ccc(C2NC(=S)NC(C)=C2C(=O)Nc2ccccc2)c(OC)c1 (centres undefined) | / | -0.23
CCSc1sc(CC)cc1C1C(C(=O)Nc2ccc(C)cn2)=C(C)NC2=C1C(=O)CCC2 (centres undefined) | / | 7.1
COC(=O)c1c(COC(=O)C2=COCCO2)nc2ccccc2c1C | -0.7 | /
CC(C)n1nc(CC(=O)O)c2ccccc2c1=O | -1 | /
